Screening data from PubChem.
KCNQ2 pot: potentiators of rat KCNQ2 potassium channel; CHO-K1 KCNQ2, FluxOR thallium flux fluorescence; active compounds read high; B-score at 10 µM; 310,000 compounds, 0.54% hits;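 active means fluorescence ratio B-score at least 3 SD of library B-scores, with initial fluorescence B-score within 3 SD, cut at about 5.3 in these data; same plate scores as AID 2156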;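 further: B-score of peak minus minimum over baseline fluorescence ratio after K+ and Tl+ stimulus; positive B-score means potentiation of KCNQ2 with more thallium influx and brighter signal; only the inactives scoring about 0 or higher are listed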
Target sequence (O88943 whole entry, looked up): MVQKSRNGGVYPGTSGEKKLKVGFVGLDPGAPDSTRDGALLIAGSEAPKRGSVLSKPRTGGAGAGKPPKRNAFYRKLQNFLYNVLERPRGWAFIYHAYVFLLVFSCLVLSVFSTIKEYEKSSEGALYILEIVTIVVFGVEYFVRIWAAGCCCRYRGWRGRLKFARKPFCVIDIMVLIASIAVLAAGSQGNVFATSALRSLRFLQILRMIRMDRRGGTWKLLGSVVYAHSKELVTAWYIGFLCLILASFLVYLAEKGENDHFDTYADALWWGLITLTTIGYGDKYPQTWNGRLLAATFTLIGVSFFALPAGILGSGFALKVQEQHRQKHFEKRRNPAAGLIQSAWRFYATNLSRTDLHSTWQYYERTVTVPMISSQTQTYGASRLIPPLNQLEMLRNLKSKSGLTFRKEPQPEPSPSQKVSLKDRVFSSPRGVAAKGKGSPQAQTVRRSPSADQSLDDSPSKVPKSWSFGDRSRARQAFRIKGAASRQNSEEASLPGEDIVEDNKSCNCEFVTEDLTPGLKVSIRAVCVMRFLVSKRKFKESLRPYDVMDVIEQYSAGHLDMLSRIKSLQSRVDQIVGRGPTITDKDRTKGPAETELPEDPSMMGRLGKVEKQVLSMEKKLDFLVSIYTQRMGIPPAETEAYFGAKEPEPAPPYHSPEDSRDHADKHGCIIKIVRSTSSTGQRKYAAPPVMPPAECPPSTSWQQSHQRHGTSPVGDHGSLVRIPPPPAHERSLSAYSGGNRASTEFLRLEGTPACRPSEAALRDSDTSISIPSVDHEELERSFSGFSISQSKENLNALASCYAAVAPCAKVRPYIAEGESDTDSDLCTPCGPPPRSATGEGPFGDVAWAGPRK
KCNQ2 pot baseline: also measured in KCNQ2 pot; calls as there; B-score; compound at 10 µM; measured here: initial fluorescence intensity artifact check;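 brightness before thallium and not channel activity; 0 = typical well and far values either way flag optical interference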
An asterisk follows results filed as active.

KCNQ2 pot	KCNQ2 pot baseline	Structure
0.4	-0.29	COc1cc([N+](=O)[O-])ccc1NC(=O)CC1SC(=Nc2ccc(F)cc2)N(CCC2=CCCCC2)C1=O (configuration not stated)
1.24	-0.58	CCCCOc1ccc(C2=NNC(=O)CC2)cc1
0.07	-2.53	CCC1Oc2ccccc2N(CC(=O)NCCN2CCCC2)C1=O (configuration not stated)
0.35	0.09	O=C(CN1C(=O)NC2(CCCC2)C1=O)Nc1ccccc1C(F)(F)F
0.02	0.9	Cc1ccc(NC(=S)N2CCN(c3ncccn3)CC2)cc1C
1.09	-0.01	O=C(Nc1cccc(-c2cccc(F)c2)c1)C1CCN(Cc2ccco2)CC1
0.05	-0.06	COc1ccc(C2C(C(=O)OCC3CCCO3)=C(C)NC3=C2C(=O)CC(c2ccco2)C3)cc1O (configuration not stated)
0.87	0.74	Cc1cccc(NC(=O)Nc2ccc(S(N)(=O)=O)cc2)c1

The closing seven compounds of the section before open the next one.
KCNQ2 pot	KCNQ2 pot baseline	Structure
1.24	-0.58	CCCCOc1ccc(C2=NNC(=O)CC2)cc1
0.07	-2.53	CCC1Oc2ccccc2N(CC(=O)NCCN2CCCC2)C1=O (configuration not stated)
0.35	0.09	O=C(CN1C(=O)NC2(CCCC2)C1=O)Nc1ccccc1C(F)(F)F
0.02	0.9	Cc1ccc(NC(=S)N2CCN(c3ncccn3)CC2)cc1C
1.09	-0.01	O=C(Nc1cccc(-c2cccc(F)c2)c1)C1CCN(Cc2ccco2)CC1
0.05	-0.06	COc1ccc(C2C(C(=O)OCC3CCCO3)=C(C)NC3=C2C(=O)CC(c2ccco2)C3)cc1O (configuration not stated)
0.87	0.74	Cc1cccc(NC(=O)Nc2ccc(S(N)(=O)=O)cc2)c1
2.09	-1.28	Cn1c(=O)n(C)c2cc(NC(=O)c3ccccc3[N+](=O)[O-])c(Br)cc21
2.46	0.37	COCC(C)NCc1cccc2ccccc12 (configuration not stated)
0.38	-0.01	O=C(NC1CCSc2ccccc21)c1ccc([N+](=O)[O-])cc1 (configuration not stated)
2.22	-0.32	CCOc1ccc(CN(C)C(=O)CNC(=O)C2CCCCC2)cc1OC
0.88	-0.82	COc1ccc(-c2c(C(C)=O)c(C)nc3sc4c(c23)NC(c2ccccc2)NC4=O)cc1 (configuration not stated)
0.36	1.52	Cc1ccc2c(c1)nnn2C1CCN(S(=O)(=O)c2ccc(C(=O)N(C)C3CCCCC3)cc2)CC1
0.73	-0.09	C[N+](C)(C)c1ccc(/C=N/Nc2nc(Cl)c(C#N)c(Cl)c2Cl)cc1
1.77	-0.42	O=C(c1ccco1)n1c(=S)nc2ccccn21

(further entries)
KCNQ2 pot	KCNQ2 pot baseline	Structure
1	-0.52	CC(=O)Nc1ccc(C2Nc3ccccc3C(=O)N2C2CCCCC2)cc1 (configuration not stated)
0.8	2.38	Cc1ccc(C(=O)CN2C(=O)c3ccccc3S2(=O)=O)cc1
0.34	-0.07	O=C(O)c1c(Cl)c(Cl)c(Cl)c(Cl)c1C(=O)N1CCCC1
1.45	-0.91	CCC(=O)c1ccccc1OCCCN1CCC(Cc2ccccc2)CC1
2.02	0.99	COc1ccc(NC(=O)Nc2ccc(Br)c(C)c2)cc1
0.49	-0.62	COc1ccc(C2=NOC(C(=O)NCc3ccc(F)cc3)C2)cc1 (configuration not stated)
2.23	0.04	Cc1ccc(S(=O)(=O)CC(=O)c2ccc(C)c([N+](=O)[O-])c2)cc1
1.02	-1.79	COc1cc(C(=O)N2CCC(NC(=O)C(Cc3ccc(C(C)C)cc3)NC(C)=O)CC2)cc(OC)c1OC (configuration not stated)

The list continues:
KCNQ2 pot	KCNQ2 pot baseline	Structure
0.69	-0.8	Cc1cc(C)c2cc(CN(Cc3cccnc3)C(=O)c3ccc(F)cc3)c(Cl)nc2c1
1.39	0.66	CSc1cccc(NC(C)C(=O)NCc2ccccc2)c1 (configuration not stated)
0.72	-0.86	COCCN(C(=O)CSc1nnc2cc(C)c3ccccc3n12)c1c(N)n(Cc2ccccc2)c(=O)[nH]c1=O
1.87	-0.13	CC(=O)N1CC(C)Sc2ccc(S(=O)(=O)NC3CCCCC3C)cc21 (configuration not stated)
1.54	0.08	CCOc1ccc2c(c1)c1nnc(SCC3CCCO3)nc1n2C (configuration not stated)
0.09	-0.68	COCCNC(=S)N(CCO)Cc1cc2cc3c(cc2[nH]c1=O)OCO3
0.68	-0.69	COc1ccc(NC(=O)c2ccc3snnc3c2)cc1
0.25	1.43	CCc1ccc(NC(=O)CCC(=O)c2ccccc2)cc1

Later entries:
KCNQ2 pot	KCNQ2 pot baseline	Structure
0.42	-1.22	CCOC(=O)c1c(C)[nH]c(N=Nc2cccc(OC)c2)c1C
0.23	0.16	CCOC(=O)C1CCN(S(=O)(=O)c2c(C)n(C)c(=O)n(C)c2=O)CC1
1.28	0.32	Cc1ccc(N2CC(C(=O)Nc3ccc(S(=O)(=O)Nc4ncccn4)cc3)CC2=O)cc1C (configuration not stated)
0.69	0.01	COC(=O)c1[nH]c2ccccc2c1NC(=O)CN1CCCCCC1
0.56	1.73	Cn1c(N=NC(=O)c2ccccc2)c(O)c2ccccc21
0.92	1.17	CCOC(=O)N1CCN(Cc2nc3cc([N+](=O)[O-])ccc3n2C)CC1
1.88	-2.69	COC(=O)c1ccc(CN2C(=O)NC(CC(C)C)C2=O)cc1 (configuration not stated)
0.77	0.56	O=C(Cc1cccs1)Nc1cccc(C(=O)Nc2ccc(C(=O)O)cc2)c1

Entries listed so far with bromine, in the order listed:
KCNQ2 pot	KCNQ2 pot baseline	Structure
2.09	-1.28	Cn1c(=O)n(C)c2cc(NC(=O)c3ccccc3[N+](=O)[O-])c(Br)cc21
2.02	0.99	COc1ccc(NC(=O)Nc2ccc(Br)c(C)c2)cc1

Additional compounds follow.
KCNQ2 pot	KCNQ2 pot baseline	Structure
0.77	0.02	Cc1ccc2nc(Cc3ccc(N)cc3)oc2c1
9.9*	0.42*	Cc1cccc(NC(=S)NC(=O)c2ccco2)c1C
0.79	-2.28	O=C(Nc1nnc(Cc2ccc([N+](=O)[O-])cc2)s1)Nc1ccccc1F
1.63	0.79	CCOc1ccc(-c2cc(NC(=O)Cn3ncc4c3-c3ccccc3OC4)on2)cc1OCC
0.11	0.69	CCN(CC)S(=O)(=O)c1cccc(-c2n[nH]c(=S)n2CC(C)C)c1
1.95	-0.44	O=C(Nc1cc([N+](=O)[O-])ccc1O)c1cccc([N+](=O)[O-])c1
0.41	-0.04	Cc1c(NC(=O)c2ccc3nsnc3c2)cccc1[N+](=O)[O-]
0.64	-0.13	Cc1cc(SCC(=O)N2CCCC2)nc2ccccc12

Later entries:
KCNQ2 pot	KCNQ2 pot baseline	Structure
0.72	-0.51	O=C(COC(=O)c1ccco1)c1ccc(Cl)cc1
0.44	-0.01	Cc1cc(=O)[nH]c(SCC(=O)c2ccc3c(c2)NC(=O)CO3)n1
0.66	-0.64	CC1CCCN(S(=O)(=O)c2ccc(NC(=O)C3CC(=O)N(C(C)(C)C)C3)cc2)C1 (configuration not stated)
0.88	-0.04	Cn1ccc(C(=O)N/N=C/c2c[nH]c3ccccc23)n1
0.03	-0.22	O=C(CSc1nnc2ccccn12)Nc1ncc(Cl)cc1Cl
0.37	0	COc1cc(C(=O)NCC(c2cccs2)N(C)C)cc(Cl)c1OC(C)C (configuration not stated)
0.68	-1.06	CCC(C)N(C(=O)Cn1c(Cl)nc2c1c(=O)n(C)c(=O)n2C)C1CCS(=O)(=O)C1 (configuration not stated)
3.61	-4.32	CCc1ccc2[nH]c(=O)c(C3C(C#N)=C(N)Oc4c3ccc3cccnc43)cc2c1 (configuration not stated)

Going on with the list.
KCNQ2 pot	KCNQ2 pot baseline	Structure
0.06	1.61	Cc1cc(N2CCOCC2)ncc1[N+](=O)[O-]
0.44	-0.24	COc1ccc(/C=N/NC(=O)c2ccccc2O)cc1Cn1cc(Cl)cn1
0.12	1.75	Cc1ccsc1/C=N/NC(=O)Cc1cc(=O)[nH][nH]1
0.45	-0.97	O=C(NCC1CCCN1S(=O)(=O)c1cccs1)c1ccc([N+](=O)[O-])cc1 (configuration not stated)
0.23	-2.98	Cc1cc(NC(=O)CSCc2ccccc2)no1
0.24	-1.22	Fc1ccc(Nc2nc(-c3cccnc3)cs2)cc1
1.42	-1.57	CCOc1ccc(C(O)Cn2c(=N)n(CCN3CCCCC3)c3ccccc32)cc1 (configuration not stated)
1.88	1.58	Cc1ccc(C2=Nn3c(COc4ccc(Cl)cc4)nnc3SC2CC(=O)O)cc1 (configuration not stated)

Further structures:
KCNQ2 pot	KCNQ2 pot baseline	Structure
0.98	-1.54	CCOC(=O)c1[nH]c2ccccc2c1NC(=O)CC
1.21	-0.86	COc1ccc(CCNC(=O)CN(c2cccc([N+](=O)[O-])c2)S(C)(=O)=O)cc1OC
0.38	0.05	COc1ccc(N2CCN(S(=O)(=O)c3c(C)nc4sccn4c3=O)CC2)cc1
2.94	2.01	O=C(COc1ccc(C(=O)NCc2cccnc2)cc1)Nc1cccc(C(F)(F)F)c1
0.26	0.54	Cc1ccc2nc(-c3ccncc3)cc(C(=O)N3CCOCC3)c2c1
0.3	2.94	Cc1cc(OCC(=O)Nc2ccncc2)ccc1Cl
0.2	0.11	COc1ccccc1N1CCN(C(=O)c2cc(-c3ccc(F)cc3)on2)CC1
0.03	0.02	CCOc1ccccc1NC(=O)COc1coc(CN2CCc3ccccc32)cc1=O

Following part:
KCNQ2 pot	KCNQ2 pot baseline	Structure
0.58	-0.75	Cc1ccccc1SCc1noc(C(=O)NC(C)C)c1C(=O)O
1.6	0.88	O=C(Nc1sc2c(c1C(=O)NCC(O)CO)CCCC2)c1ccccc1 (configuration not stated)
0.77	1.54	COC(=O)c1nn(-c2ccc(OC)cc2)c(=O)c2c(N)sc(C)c12
0.51	1.75	COc1ccc(CC(=O)NC(=S)Nc2cccc(CO)c2)cc1
0.72	0.53	Cc1ccc(S(=O)(=O)NC2CC2)s1
0.63	-1.3	CCOC(=O)[C@@H]1[C@H]2COc3ccc(Br)cc3[C@@H]2N2C(=O)N(c3ccc(OC)cc3)C(=O)[C@]12C
0.45	-0.79	O=C(CSc1cccc[n+]1[O-])Nc1ccc2c(c1)OCO2
0.43	0.43	O=C(Nc1ncccn1)c1cccs1

Next structures:
KCNQ2 pot	KCNQ2 pot baseline	Structure
0.81	-0.46	COc1ccc(NC(=O)Cc2nnc(SCC(=O)NC3CCCCC3)n2C)cc1
0.48	-0.06	Cc1cc(NC(=O)CSc2nc3ccccc3c(=O)n2Cc2ccccc2)no1
0.31	0.43	CC1(NC(=S)Nc2ccc3ccccc3c2)CCS(=O)(=O)C1 (configuration not stated)
0.28	-0.81	O=c1c2ccccc2ncn1CCCOc1ccccc1[N+](=O)[O-]
1.34	0.6	Clc1nc(Oc2ccccc2)nc(-c2cn(-c3ccccc3)c3ccccc23)n1
1.37	-0.46	c1ccc(Cn2c(-c3ccccc3)nc3nc4ccccc4nc32)cc1
2.01	-0.58	Cc1cccc(-c2nc(CNC(=O)c3ccco3)cs2)c1
0.34	-1.78	O=C(CCC1CCCC1)N[C@@H](Cc1ccc(O)cc1)C(=O)O

Further compounds follow:
KCNQ2 pot	KCNQ2 pot baseline	Structure
0.49	-0.14	CCOC(=O)CNC(=O)CSc1nnc(CCc2nc3ccccc3[nH]2)n1C
0.11	0.46	CC(=NCc1ccc2c(c1)OCO2)C1=C(O)c2ccccc2C1=O
0.01	1.27	CCOC(=O)c1sc(NS(=O)(=O)c2cc(C)ccc2C)nc1C
0.86	0.06	CCCCc1cc(=O)oc2cc(OCC(=O)NC(Cc3c[nH]c4ccc(O)cc34)C(=O)O)ccc12 (configuration not stated)
1.24	-0.11	COc1ccc(N2CC(O)(c3ccc(OC(F)F)cc3)[N+]3=C2CCCC3)cc1 (configuration not stated)
0.46	0.78	COc1cccc(N(C(=O)c2ccco2)C(C(=O)NC2CCCC2)c2cccnc2)c1 (configuration not stated)
1.56	0.46	COc1ccc(NC(=S)N2CCN(C(=O)c3ccco3)CC2)c(OC)c1
0.36	-0.9	O=C(/C=C/c1cccc([N+](=O)[O-])c1)Nc1cccc(NC(=O)c2ccco2)c1

Later entries.
KCNQ2 pot	KCNQ2 pot baseline	Structure
0.15	-0.44	N#Cc1cccc(CS(=O)(=O)c2ccc(Cl)cc2)c1
0.29	-0.96	COc1ccc(NC(=O)c2cc(-c3ccccc3Cl)on2)cc1OC
4.05	0.3	C/C(=N\NC(=O)Cc1ccc(Cl)cc1)c1ccccc1O
1.25	-1.13	CC(=O)NC1C(OCCOc2ccc(Cl)cc2Cl)OC(COC(C)=O)C(OC(C)=O)C1OC(C)=O (configuration not stated)
0.49	0.99	Cc1ccc(N2C(=O)c3n[nH]c(C)c3C2c2ccccn2)cc1 (configuration not stated)
0.6	0.31	COC(=O)c1ccc(COc2cccc(OC)c2)o1
0.2	1.73	S=c1[nH]nc(-c2cccc(Cl)c2)n1CCN1CCCCC1
0.89	-2.1	O=C(NCCCN1CCCC1=O)c1ccc(Cl)c(NS(=O)(=O)c2ccc(F)cc2)c1

Following part:
KCNQ2 pot	KCNQ2 pot baseline	Structure
0.68	-2.16	C/C(=N\NC(=O)c1ccncc1)c1cc2ccccc2oc1=O
0.01	-0.25	COc1ccc(CN2CCNC(=O)C2CC(=O)N(C)Cc2ccno2)c(F)c1 (configuration not stated)
1.35	0.45	CC(=O)NC(NC(=S)Nc1ccccc1Br)C(Cl)(Cl)Cl (configuration not stated)
0.02	0.44	CCOC(=O)N1CCN(CC(=O)Nc2cccc(Br)c2)CC1
1.36	-1.29	CCC(=O)Nc1cc(C(F)(F)F)ccc1N1CCOCC1
0.09	-0.65	CC(C)[C@H](NC(=O)NCc1ccc(Cl)cc1)C(=O)O
0.23	-1.13	O=C(CNC(=O)c1cccs1)NCC(=O)OCc1ccc(Cl)cc1Cl
0.16	0.22	CCCn1nnc(NC(=O)c2cccc(OCc3ccccc3)c2)n1
0.25	2.03	Cc1cc(C(=O)Nc2cc(S(C)(=O)=O)ccc2Cl)no1

A portion of the library. The share of hits here may be higher or lower than overall.
